Screens (PubChem BioAssay)
Rango complex inh – Rango-importin beta binding inhibition | Potency, µM (series often up to 92.2 µM), without a hit: at the top dose inhibition of complex formation | Q14974 | 340,000 compounds, 0.031% hits | Rango CFP/YFP FRET sensor + importin beta, 45 min | AID 540263; active = rising FRET ratio curve, often small or poorly fitted; inconclusive = mostly compound fluorescence or quenching in the first reads; inactive = flat curves in all reads;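 also: potency is read from the fitted curve at half-maximal effect; 0% = DMSO wells and 100% = buffer wells lacking importin beta; nearly all actives have a fitted effect of over 15% in size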
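FRET biosensor (snurportin 1 IBB flanked by EYFP and cerulean), 50 nM, with compound 5 min, then 0.125 microM importin beta in PBS, 1 mM DTT, 0.02% Tween-20, 0.1% BSA. CFP/YFP ratio read after 45 min at room temperature; pre-read flags interference.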
miR-21 FLuc – raises the signal of a miR-21 reporter | HeLa miR-21 FLuc reporter, luciferase, 48 h | Potency, µM (doses to about 38.3 µM), for inactives: at the highest dose reporter change, positive = more light | 340,000 tested, under 10 active; active = well fitted rising curve with a large enough effect; inconclusive = small, poorly fitted or top-dose-only effect; inactive = no such curve, though single readings can be large or run the other way;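 also: % of control where 0% means no effect; miR-21 action dims this reporter so a rising signal means less miR-21 action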
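HeLa cells stably expressing CMV-driven firefly luciferase with a downstream miR-21 binding sequence, endogenously expressing miR-21, were treated with titrations (up to about 40uM final) for 48 hours at 37 degree Celsius. Luciferase luminescence was read after lysis.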
GLA inh pH 4.5 – inhibitors of human alpha-galactosidase A at pH 4.5. purified enzyme, 4-MU-alpha-Gal fluorescence, pH 4.5. activity change, negative = inhibition, % at 105 µM. 230,000 tested, under 10 active; inconclusive = small, poorly fitted or top-dose-only inhibition, or a rising curve; inactive = flat fitted curve, though single readings scatter; no compound was filed as active;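 also: 0% = full activity with enzyme and -100% = basal without enzyme; dose as in the result columns while the protocol names 77 µM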
Target sequence (P06280 whole entry, looked up): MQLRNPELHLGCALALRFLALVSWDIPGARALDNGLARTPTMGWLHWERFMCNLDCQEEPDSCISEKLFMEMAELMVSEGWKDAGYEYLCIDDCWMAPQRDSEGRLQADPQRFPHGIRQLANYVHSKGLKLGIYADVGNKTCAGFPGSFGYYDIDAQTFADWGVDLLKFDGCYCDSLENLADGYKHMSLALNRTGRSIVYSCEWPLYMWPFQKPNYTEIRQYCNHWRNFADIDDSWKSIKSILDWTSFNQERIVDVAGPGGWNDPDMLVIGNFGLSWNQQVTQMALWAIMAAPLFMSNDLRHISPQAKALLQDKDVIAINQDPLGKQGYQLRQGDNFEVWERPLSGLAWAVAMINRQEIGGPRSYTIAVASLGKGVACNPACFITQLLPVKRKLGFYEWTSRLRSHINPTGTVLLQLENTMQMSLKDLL
Rango release inh – inhibitors of RanGTP-induced Rango-importin beta complex dissociation; O95149+P62826; Potency, µM (top dose mostly 46.1 µM), inactives show top-dose activity change, negative = inhibition; Biochemical FRET Rango-importin beta, RanGTP-induced dissociation; 340,000 compounds, 0.071% hits; active means falling FRET ratio curve, often poorly fitted, with flat reads before Ran was added; inconclusive means other falling curves, or compound fluorescence or quenching; inactive means flat or rising ratio curve;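 also: potency is read from the fitted curve at half-maximal effect; % of control where 0% means no effect; nearly all actives have a fitted effect of over 45% in size; -100% = wells without RanGTP and RCC1; the record marks most hits as doubtful in a second field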
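Rango/importin beta premix (0.1/0.25 uM final), PBS + 1 mM DTT + 0.02% Tween-20 + 0.1% BSA; cpd 5 min RT; FRET pre-read; + RanGTP-RCC1 (0.6 uM Ran, 2 mM GTP, 0.2 uM RCC1); 45 min RT; FRET post-read, ex 430, em 486/530 nm.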
Active calls of the source: *; ? = inconclusive; · = no result given; & = joins results of further samples; [ ] = remark or other dose. An excerpt, so the mix of outcomes need not match the whole.

nr | SMILES | Rango complex inh | GLA inh pH 4.5 | Rango release inh | miR-21 FLuc
1 | COc1ccc(N/C=C(\C#N)S(=O)(=O)c2ccc(Cl)cc2)c(OC)c1 | 5.3% | · | 1% | -2%
2 | O=C(Nc1cccc2ccccc12)N(CCO)C1CCS(=O)(=O)C1 (configuration not stated) | 1.9% | · | -5% | 4%
3 | COc1ccccc1[C@@H]1C(c2cccc(C)c2)=NN(c2ccc(Br)cc2)[C@H]1C(=O)N1CCOC1=O | -2.3% | 2 | -22% | ·
4 | Cc1onc(-c2ccccc2)c1C(=O)N1CCN(c2ncccc2C(F)(F)F)CC1 | 1.7% | · | 12% | 16%
5 | CCCn1nc(C(=O)N2CCCc3ccccc32)c2ccccc2c1=O | -2.9% | 11 | 15% | -2%
6 | O=C(COC(=O)CCC1CCCC1)Nc1nc2c(F)c(F)c(F)cc2s1 | -3.8% | -1 | ? | 0%
7 | CC(=O)COC(=O)c1ccc2noc(-c3ccccc3)c2c1 | -0.7% | · | -16% | -43%
8 | CCN1CCN(c2cc(C)c3cc(NC(=O)CCC(=O)Nc4ccc(OC)cc4OC)ccc3n2)CC1 | -0.9% | · | -12% | -4%
9 | Cc1sccc1C1C(C#N)=C(N)SC(N)=C1C#N | · | 0 | · | -22%
10 | COc1ccc(-n2c(=O)c3c4c(sc3n(CC(=O)NCC3CCCO3)c2=O)CCCC4)c(OC)c1 (configuration not stated) | -1.6% | -2[21.1 µM] | 11% | -1%
11 | O=[N+]([O-])c1cccc(-c2cc3cccc[n+]3cc2-c2cccc([N+](=O)[O-])c2)c1 | -4.0% | 5 | 0% | -5%
12 | O=C(CSc1nc2ccccc2c(=O)[nH]1)c1cccs1 | -3.4% | -3 | 2% | -31%
13 | CCOc1ccc(NC(=S)NCCCN2CCN(C3CCCCC3)CC2)cc1 | 2.1% | 8 | -21% | -10%
14 | CCOC(=O)c1nnn(-c2nc(OC)nc(N3CCCCC3)n2)c1-c1ccccc1 | · | -2 | · | -2%
15 | COc1ccc(-c2cc(C(F)(F)F)nc(SCCC(=O)N3CCN4CCCC4C3)n2)cc1 (configuration not stated) | 0.7% | -6 | -20% | 9%
16 | COc1ccc2cc(C(c3nnnn3CCc3ccccc3)N3CCC(O)CC3)c(=O)[nH]c2c1 (configuration not stated) | ? | -3 | ? | -1%
17 | Cc1cccc(-n2nnc(C(=O)NCc3ccco3)c2N)c1 | 0.7% | -4 | -11% | -32%
18 | Cc1cccc(N2C(=O)C(CC(=O)Nc3cccc(F)c3)N(CCc3ccncc3)C2=O)c1 (configuration not stated) | -0.4% | -12 | -17% | 3%&4%
19 | CCN(CC)C(=O)c1[nH]cnc1C(=O)N[C@@H](CC(C)C)C(=O)OC(C)(C)C | -3.8% | -5 | 3% | -3%
20 | NS(=O)(=O)c1cccnc1Nc1cccc(Cl)c1 | 1.1% | -11 | 3% | -7%

(next part)
nr | SMILES | Rango complex inh | GLA inh pH 4.5 | Rango release inh | miR-21 FLuc
21 | O=C(Cc1nnc(NC(=O)Nc2ccc(F)cc2)s1)Nc1ccccc1 | -1.5% | 3 | -6% | 0%
22 | CN1CCN(NC(=O)CN2C(=O)S/C(=C\c3c(Cl)cccc3Cl)C2=O)CC1 | 4.7% | -3 | 0% | 0%
23 | CC(C)C[C@H](NC(=O)CCn1nnc2ccccc2c1=O)C(=O)O | -2.1% | -4 | -17% | 1%
24 | COc1ccc(CC(=O)Nc2nc(C(C)(C)C)cs2)cc1 | 0.7% | · | 45% | 14%
25 | Cc1c(C(=O)/C=C/N(C)C)nnn1-c1ccc(F)c(Cl)c1 | ? | 1 | 1% | -42%
26 | O=C(CN1C(=O)C(=O)N(C2CCCC2)C1=O)Nc1ccccc1OC(F)F | -2.9% | · | -1% | ·
27 | CN(C)c1ccc(C(=O)N2CCCC(N3CCN(Cc4ccc5c(c4)OCO5)CC3)C2)cc1 (configuration not stated) | -0.5% | · | 15% | 4%
28 | O=C(CS(=O)(=O)c1cn(Cc2cccc(F)c2)c2ccccc12)N1CCOCC1 | 0.8% | 7 | 6% | -8%
29 | COc1cc(/C=C/C(=O)OCC(=O)N2CCC(Cc3ccccc3)CC2)ccc1O | ? | -12 | ? | 0%
30 | O=C(NC(NC(=S)Nc1ccc(Cl)cc1)C(Cl)(Cl)Cl)c1ccco1 (configuration not stated) | -0.7% | -2 | -13% | ?
31 | CCC(CC)C(=O)N1CCCC(c2nc(-c3cccs3)no2)C1 (configuration not stated) | -0.6% | 0 | -9% | -17%
32 | O=C(CSc1ncnc2nc[nH]c12)c1ccc(Cl)cc1 | -3.9% | · | 8% | 0%
33 | COc1cc(/C=C/C(O)=C/C(=O)/C=C/c2ccc(O)cc2)ccc1O | ? | · | ? | ·
34 | C=CCn1c(-c2ccc(F)cc2)n[nH]c1=S | 1.1% | -7 | 8% | -1%
35 | CCN(C(=O)CN1CCN(c2ccccc2O)CC1)c1c(N)n(Cc2ccccc2)c(=O)[nH]c1=O | 1.3% | 2 | 1% | -3%
36 | CCO[C@H]1OC(C(=O)NC2CC2)=C[C@@H](c2ccccc2)[C@@H]1CCCO | -1.3% | 1 | 7% | ?
37 | O=C(COC(=O)CNC(=O)c1cccc([N+](=O)[O-])c1)Nc1ccccc1OC(F)F | -1.8% | 11 | -3% | 0%
38 | CCOC(=O)N1CCN(C(=O)c2cccn3c(=O)c4c5c(sc4nc23)CCCC5)CC1 | ? | 6 | ? | -5%
39 | CN1C(=O)CC(C(=O)Nc2ccccc2F)SC1=Nc1ccc2c(c1)OCO2 (configuration not stated) | -3.4% | 4 | -2% | 3%
40 | Nc1nccnc1C(=O)OCC(=O)N1CCN(S(=O)(=O)c2ccc(Cl)cc2)CC1 | ? | · | -23% | ·

12 structures out of the list, ordered by molar mass, low to high.
nr | SMILES | Rango complex inh | GLA inh pH 4.5 | Rango release inh | miR-21 FLuc
9 | Cc1sccc1C1C(C#N)=C(N)SC(N)=C1C#N | · | 0 | · | -22%
20 | NS(=O)(=O)c1cccnc1Nc1cccc(Cl)c1 | 1.1% | -11 | 3% | -7%
17 | Cc1cccc(-n2nnc(C(=O)NCc3ccco3)c2N)c1 | 0.7% | -4 | -11% | -32%
32 | O=C(CSc1ncnc2nc[nH]c12)c1ccc(Cl)cc1 | -3.9% | · | 8% | 0%
31 | CCC(CC)C(=O)N1CCCC(c2nc(-c3cccs3)no2)C1 (configuration not stated) | -0.6% | 0 | -9% | -17%
5 | CCCn1nc(C(=O)N2CCCc3ccccc32)c2ccccc2c1=O | -2.9% | 11 | 15% | -2%
21 | O=C(Cc1nnc(NC(=O)Nc2ccc(F)cc2)s1)Nc1ccccc1 | -1.5% | 3 | -6% | 0%
39 | CN1C(=O)CC(C(=O)Nc2ccccc2F)SC1=Nc1ccc2c(c1)OCO2 (configuration not stated) | -3.4% | 4 | -2% | 3%
14 | CCOC(=O)c1nnn(-c2nc(OC)nc(N3CCCCC3)n2)c1-c1ccccc1 | · | -2 | · | -2%
4 | Cc1onc(-c2ccccc2)c1C(=O)N1CCN(c2ncccc2C(F)(F)F)CC1 | 1.7% | · | 12% | 16%
27 | CN(C)c1ccc(C(=O)N2CCCC(N3CCN(Cc4ccc5c(c4)OCO5)CC3)C2)cc1 (configuration not stated) | -0.5% | · | 15% | 4%
16 | COc1ccc2cc(C(c3nnnn3CCc3ccccc3)N3CCC(O)CC3)c(=O)[nH]c2c1 (configuration not stated) | ? | -3 | ? | -1%

(further entries)
nr | SMILES | Rango complex inh | GLA inh pH 4.5 | Rango release inh | miR-21 FLuc
41 | CS(=O)(=O)c1ccc2nc(NC(=O)CCS(=O)(=O)c3ccccc3)sc2c1 | -2.2% | · | -8% | ?
42 | CC(C)CCOc1ccc(/C=C2\CCn3c2nc2cc(C(=O)O)ccc2c3=O)cc1 | -2.5% | -2 | 0% | 0%
43 | O=C(CCS(=O)(=O)c1ccccc1)N1CCOCC1 | -1.0% | 0 | 8% | -29%
44 | COc1cc(-c2nc(-c3ccncc3)no2)cc(OC)c1OC | 7.3% | 0 | ? | -7%
45 | Cc1cc(=O)oc2cc(OCc3cc4c(cc3Cl)OCO4)ccc12 | 1.5% | -1 | 7% | -16%
46 | Cc1cc(C)c(OCC(=O)OC(C)C(=O)NC2CC2)c(C)c1 (configuration not stated) | 6.0% | · | -1% | 2%
47 | CCc1nn(CC(=O)NCCCN2CCN(C)CC2)c(=O)c2cc3sc(C)cc3n12 | 2.8% | · | -7% | 4%
48 | CCN1C(=O)C(CC(=O)Nc2ccc(OC)cc2)N(Cc2cccs2)C1=S (configuration not stated) | 0.0% | -5 | 24% | 2%
49 | COC(=O)[C@]1(Cc2ccccc2)N[C@H](CN(C)C(=O)c2ccc(F)cc2)[C@@H]2C(=O)N(Cc3ccccc3)C(=O)[C@@H]21 | -0.5% | · | -1% | ·
50 | CCOC(=O)C1C2C=CC3(CN(Cc4ccccc4)C(=O)C13)O2 (configuration not stated) | 3.5% | -1 | -5% | 0%
51 | CC1(C)CC(=O)C(C(=S)Nc2ccc(F)cc2)=C(NCCN2CCOCC2)C1 | 1.4% | -4 | -14% | -8%
52 | COc1cccc(Cn2cc(C(=O)NCCN(C)C)nn2)c1 | -1.9% | -8 | -6% | -11%
53 | Cc1ccc(-n2cc[nH]c2=S)cc1C | 0.6% | -21 | -9% | -3%
54 | C/C=C\C=C\C(=O)Nc1cccc(C2=NOC3(C2)C[C@@H](C(N)=O)N(C(=O)C(c2ccccc2)c2ccccc2)C3)c1 (some centres not stated) | -2.1% | -8 | -29% | 3%
55 | N#Cc1cccc(NC(=O)COC(=O)c2ccccc2Sc2ccccc2C#N)c1 | -0.9% | -5 | 20% | 2%
56 | N#Cc1ccc(Cl)cc1NC(=O)COC(=O)c1ccc2c(c1)OCCO2 | -0.3% | 3 | 10% | 3%
57 | COCCOc1cc(N(CC(=O)N(C)C)S(=O)(=O)c2ccccc2)c(Cl)cc1Cl | 1.4% | 2 | 2% | -9%
58 | Cc1nc2ccc(NC(=S)N3CCCC3)cc2nc1C | 0.1% | -10 | 6% | -17%
59 | O=C(COC(=O)c1cc(S(=O)(=O)N2CCOCC2)ccc1F)NCc1ccco1 | -5.4% | · | -17% | -2%
60 | CN(C)C(=O)COc1ncnc2sc(-c3ccccc3)cc12 | 2.0% | · | -4% | -40%

(further entries)
nr | SMILES | Rango complex inh | GLA inh pH 4.5 | Rango release inh | miR-21 FLuc
61 | Cc1ccc(/C=C/C(=O)Nc2nnc(SCc3ccc(C#N)cc3)s2)o1 | 4.8% | -8 | ? | -13%
62 | Cc1ccc2c(CC(=O)N(C)c3c(N)n(Cc4ccccc4)c(=O)[nH]c3=O)coc2c1 | -0.1% | · | 0% | ·
63 | CCOC(=O)CCCCC(=O)NC(CO)C(=O)NC (configuration not stated) | -2.1% | -13 | 0% | -8%
64 | NNC(=O)c1cccc(O)c1 | -3.3% | 9 | 22% | -14%
65 | C=CCOc1ccc2c(c1)CCC1C2CCC2(C)C(O)C(O)CC12 (configuration not stated) | -2.6% | · | -7% | ·
66 | CCCSc1nc2c3c(sc2c(=O)[nH]1)CC(C)(CC)OC3 (configuration not stated) | 0.2% | 7 | 7% | -2%
67 | COc1ccc(CCNC(=O)c2ccc(Cl)c(S(=O)(=O)N3CCCCCC3)c2)cc1 | -2.5% | · | 13% | ·
68 | CCN(CC)CCOCCOC(=O)C(CC)(CC)c1ccccc1 | 1.4% | -8 | 5% | -6%
69 | O=C(CS(=O)(=O)Cc1ccccc1)NCc1ccco1 | -1.0% | 6 | 1% | -1%
70 | C=CCN1C(=Nc2ccccc2)SC/C1=C\C(=O)OC | 3.9% | 2 | -5% | -16%
71 | O=Cc1cccn1-c1ccccc1 | 0.3% | 9 | 13% | 3%
72 | CCn1cc(CN2CCC(Oc3ccc(C(=O)N4CCCCC4)cc3)CC2)cn1 | -1.7% | · | -11% | 2%
73 | O=C(COC(=O)c1cccc(S(=O)(=O)N2CCOCC2)c1)NCCc1ccccc1 | -4.4% | · | ? | 5%
74 | O=C(CSc1nnnn1-c1cccc2c1CCCC2)N1CCOCC1 | -3.0% | 0 | 6% | -6%
75 | O=C(COC(=O)CCSc1ccccc1)NCc1ccc(F)cc1 | 2.9% | -4 | -2% | -6%
76 | O=S(=O)(c1ccccc1)c1nc(-c2ccco2)oc1Nc1ccccc1 | 0.1% | -1 | 3% | -21%
